High-throughput results as filed in PubChem BioAssay.
FPR binder = human FPR ligands by binding competition, primary screen, cell-based, FPRL1 counter-screen, flow cytometry. FPR-expressing cells, fluorescent ligand binding. 0.74% of 24,000 active. fMet-Leu-Phe receptor (Homo sapiens), P21462. inhibition, %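 (tested at 6.7 µM)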;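 also: 0% = buffer wells and 100% = receptor blocker peptide wells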
Target sequence (P21462 whole entry, looked up): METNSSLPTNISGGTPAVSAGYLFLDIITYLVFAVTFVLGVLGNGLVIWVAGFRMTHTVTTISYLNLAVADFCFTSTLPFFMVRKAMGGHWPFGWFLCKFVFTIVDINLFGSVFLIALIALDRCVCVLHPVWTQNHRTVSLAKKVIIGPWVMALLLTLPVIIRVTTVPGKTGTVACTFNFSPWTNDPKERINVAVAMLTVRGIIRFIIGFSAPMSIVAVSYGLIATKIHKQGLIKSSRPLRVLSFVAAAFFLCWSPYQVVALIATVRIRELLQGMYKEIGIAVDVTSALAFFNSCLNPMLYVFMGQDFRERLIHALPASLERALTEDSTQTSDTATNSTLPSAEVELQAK
VCAM-1 inhibition = inhibitors of TNFa-induced VCAM-1 surface display, cell-based, plate reader, pooled HUVEC, TNFa stimulus (AID 454) | HUVEC TNFa-induced VCAM-1 surface immunofluorescence, plate reader; numbers were filed only for top-ranked candidate wells | 0.2% of 10,000 active | inhibition, % at 5 µM;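 active = compound among top-ranked inhibitors of TNF-induced VCAM-1 adhesion protein staining, with the hit upheld by image or statistical review; inactive = the rest, including hits rejected on review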;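 also: 0% = TNFa with vehicle and 100% = cells without TNFa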
VCAM-1 down imaging = inhibitors of TNFa-induced VCAM-1 surface display, imaging, high-content imaging, pooled HUVEC, TNFa stimulus (AID 456) | HUVEC TNFa-induced VCAM-1 surface expression, immunofluorescence imaging; numbers were filed only for top-ranked candidate wells | 0.2% of 10,000 active | inhibition, % at 5 µM; hits with a dose series show IC50 in µM;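 active = top tenth filtered wells with inhibition above zero that passed visual or statistical confirmation; inactive = the rest, including hits rejected on review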;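 also: 0% = stimulated vehicle wells and 100% = unstimulated cells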
FPRL1 ligand = human FPRL1 ligands by binding competition, primary screen, cell-based, FPR counter-screen, flow cytometry. inhibition, %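 (tested at 6.7 µM)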. 0.3% of 24,000 active. AID 441, 2006. FPRL1-expressing cells, fluorescent ligand binding inhibition;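 also: 0% = buffer alone and 100% = receptor blocker peptide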
Target sequence (P25090 whole entry, looked up): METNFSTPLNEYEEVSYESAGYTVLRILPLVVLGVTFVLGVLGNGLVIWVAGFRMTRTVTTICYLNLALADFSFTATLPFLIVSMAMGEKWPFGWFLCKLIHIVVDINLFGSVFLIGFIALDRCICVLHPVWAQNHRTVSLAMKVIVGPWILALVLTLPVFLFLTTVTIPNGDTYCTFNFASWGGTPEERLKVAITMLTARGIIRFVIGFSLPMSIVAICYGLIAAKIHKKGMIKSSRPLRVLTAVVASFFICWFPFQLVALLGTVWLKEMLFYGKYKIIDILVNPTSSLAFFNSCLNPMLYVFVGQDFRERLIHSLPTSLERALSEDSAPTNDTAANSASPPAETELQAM
VCAM-1 augmentation = enhancers of VCAM-1 display on endothelial cells, imaging, high-content imaging, pooled HUVEC, TNFa stimulus (AID 457). 0.2% of 10,000 active. Pooled HUVEC, TNFa-induced VCAM-1 immunofluorescence imaging; hits of this screen are not shown here. calls only;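 active = a top-ranked rise in VCAM-1 staining upheld on image or statistical review; inactive = the rest, including candidates rejected on review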;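 also: compounds tested at 5 µM in the well; cells exposed to compound for 24 hours before fixing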
Starred values were filed as active, the others as inactive; i = inactive; x = not tested or not shown.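 The calls were made as follows, unless noted: active = mean above 30%; inconclusive = self-fluorescent; inactive = the rest.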

Every second line gives: FPR binder, VCAM-1 inhibition, VCAM-1 down imaging, FPRL1 ligand, VCAM-1 augmentation
> CCCc1cc(C(=O)Nc2ccc(C(C)=O)cc2)no1
  -4, i, i, -8, i
> CC(=O)NCCn1c(SCC(=O)NCCC2=CCCCC2)nc2ccccc2c1=O
  -3, x, x, -3, x
> CC(=O)NCC(=O)NC1(C(=O)NC2CCCC2)CCCCC1
  -8, x, x, -3, x
> CC(C)OCCCNC(=O)C1CCN(S(=O)(=O)N2CCCCC2)CC1
  -4, x, x, 2, x
> COc1ccc(-n2c(Cc3cccn3C)nnc2SCC(=O)Nc2ccccc2)cc1
  4, i, i, 2, i
> Cc1ccccc1-n1c(Cn2c(=O)sc3ccccc32)nnc1SCC(N)=O
  4, i, i, 6, i
> CCOC(=O)c1cccc2c1-c1ccccc1/C2=N/O
  8, x, x, -9, x
> O=C(CSc1nnc(Cn2nnc(-c3ccccc3)n2)n1-c1ccccc1)Nc1ccc(F)cc1
  -7, i, i, -9, i
> Cc1nc2sc(C(c3ccc(Br)cc3)N3CC(C)OC(C)C3)c(O)n2n1 (stereo unspecified)
  -3, i, i, -1, i
> COc1ccccc1CNC(=O)CCCN1C(=O)COc2ccc(C)cc21
  1, x, x, 3, x

2 records picked at random from the list so far, as already listed:
Every second line gives: FPR binder, VCAM-1 inhibition, VCAM-1 down imaging, FPRL1 ligand, VCAM-1 augmentation
> Cc1ccccc1-n1c(Cn2c(=O)sc3ccccc32)nnc1SCC(N)=O
  4, i, i, 6, i
> O=C(CSc1nnc(Cn2nnc(-c3ccccc3)n2)n1-c1ccccc1)Nc1ccc(F)cc1
  -7, i, i, -9, i

(next part)
Every second line gives: FPR binder, VCAM-1 inhibition, VCAM-1 down imaging, FPRL1 ligand, VCAM-1 augmentation
> Cc1ccc(-c2nnc(-c3ccc(Br)cc3)o2)o1
  -1, i, i, 3, i
> CCSc1nnc2c(n1)OC1(CCCC1)Nc1ccccc1-2
  4, x, x, 0, x
> Cc1noc(C)c1S(=O)(=O)NCCc1ccc(S(N)(=O)=O)cc1
  1, x, x, 3, x
> CCN(C(=O)c1cnc(N2CCN(c3ncccn3)CC2)c2ccccc12)c1cccc(Cl)c1
  -2, x, x, -3, x
> Cc1cccc(-c2nc(CSCC(=O)NCCCN3CCOCC3)c(C)o2)c1
  2, x, x, -1, x
> CCOC(=O)c1ccccc1NC(=O)CSc1nnc(Cc2cccn2C)n1-c1ccc(F)cc1
  -4, x, x, -4, x
> CC1Cc2nc(SCC(=O)Nc3ccc(F)cc3)n(C)c(=O)c2S1 (stereo unspecified)
  1, x, x, 0, x
> O=C(CC1Oc2ccccc2NC1=O)NCCCN1CCOCC1 (stereo unspecified)
  6, i, i, 9, i
> CCN(C(=O)CSc1nc2cc(C(=O)OC)ccc2c(=O)n1Cc1ccco1)c1cccc(C)c1
  12, x, x, -1, x
> O=C(NCC(c1cccnc1)N1CCN(c2ccccc2)CC1)c1ccco1 (stereo unspecified)
  -5, x, x, 0, x
> O=C(O)CCCNS(=O)(=O)c1ccc(NCc2ccccc2)c(C(=O)O)c1
  5, i, i, 4, i
> COc1ccccc1N1CCN(CC(=O)Nc2cccc(F)c2)CC1
  2, x, x, -1, x
> COc1ccccc1NC(=O)C1=C(C)NC(SCC(=O)c2ccc(C)cc2)=C(C#N)C1c1ccco1 (stereo unspecified)
  -8, i, i, 2, i
> CC(NC(=O)COc1cccc(Br)c1)C(=O)O (stereo unspecified)
  3, x, x, 1, x
> Cc1ccc(CNC(=O)CCS(=O)(=O)c2cccc3nsnc23)cc1
  6, x, x, 1, x
> NC(=O)c1cc(-c2ccccc2)nc(N2CCOCC2)n1
  -6, i, i, -6, i
> CCOC(=O)C1=C(C)Nc2nc(SCC)[nH]c(=O)c2C1c1ccncc1 (stereo unspecified)
  4, x, x, 0, x
> CCC(C)NC(=O)C1CCC(=O)N1Cc1ccc(C)cc1 (stereo unspecified)
  -10, x, x, -1, x
> Cc1ccc(Oc2ccc(-c3nc(N)nc(N)n3)cc2)cc1
  -13, i, i, -10, i
> CCOC(=O)c1c(C)c(C(=O)NCc2cccnc2)c(C)n1CC
  7, x, x, 5, x
> CCC(=O)Nc1ccc(NC(=O)c2ccccn2)cn1
  -16, i, i, 1, i
> CCOC(=O)c1oc2ccccc2c1NC(=O)c1ccc2c(c1)OCO2
  4, x, x, -1, x
> COCCN(CCOC)c1ncnc2c1cnn2-c1ccccc1
  -5, i, i, 0, i
> CCOc1ccccc1C(=O)NCc1ccc2c(c1)OCO2
  3, i, i, -2, i
> COC(=O)c1ccc2ncccc2c1
  -8, i, i, 2, i
> CCn1c(N)c(C(=O)NC)sc1=S
  2, x, x, 8, x
> CC1(C)OC(=O)C(=CNc2ccccc2)C(=O)O1
  -9, i, i, 0, i
> COc1ccc(N2C(=O)C3C4C=CC(C4)C3C2=O)c(OC)c1 (stereo unspecified)
  5, x, x, 2, x
> S=c1[nH]nc(Cc2ccccc2)n1-c1ccccc1
  0, i, i, -2, i
> Cc1cc(C)c(C#N)c(SCS(=O)c2ccc(C(C)(C)C)cc2)n1 (stereo unspecified)
  -4, x, x, 6, x
> Cc1cccn2c(=O)c3cc(C(=O)NCCCN4CCCC4=O)n(C)c3nc12
  -3, x, x, -2, x
> O=C(NCC1CCCO1)c1cc(-c2ccncc2)nc2ccc(S(=O)(=O)N3CCOCC3)cc12 (stereo unspecified)
  0, i, i, -2, i
> Cc1[nH]c2ccc(-c3nnc(SCC(=O)NCc4ccco4)n3Cc3ccccc3)cc2c1C
  19, x, x, 11, x
> Cn1cccc1Cc1nnc(SCC(=O)NCc2ccccc2)n1-c1ccc(F)cc1
  -2, x, x, 2, x
> COc1ccc(NC(=O)c2cc(CC(C)C)on2)cc1OC
  4, x, x, 8, x
> O=C(c1ccco1)N1CCN(c2cccc(Cl)c2)CC1
  0, i, i, 0, i
> CCOc1ccccc1C1C(C(N)=O)=C(C)Nc2nc(CCCO)nn21 (stereo unspecified)
  -5, x, x, 3, x
> Cc1c(C(=O)O)oc2ccc(S(=O)(=O)N3CC(C)CC(C)C3)cc12 (stereo unspecified)
  -6, x, x, 1, x
> CC(C)Cc1nc(N2CCN(C(=O)c3ccco3)CC2)c(C#N)c2c1CCC2
  3, i, i, -1, i
> COCCn1c(=O)[nH]c2cc(C(=O)NC(C)C)ccc2c1=O
  -5, x, x, -4, x
> O=C(COc1ccc(S(=O)(=O)NC2CCCCC2)cc1Cl)NCC1CCCO1 (stereo unspecified)
  -9, i, i, 0, i
> Cc1cc(/C=N/n2cnnc2)c(C)n1-c1ccc(Cl)cc1Cl
  -5, i, i, -8, i
> COc1ccc(/C(O)=C2/C(=O)C(=O)N(c3nc(C)c(C)s3)C2c2ccco2)cc1 (stereo unspecified)
  19, x, x, -6, x
> O=C1C2CC=CCC2C(=O)N1c1ccc(Cc2ccncc2)cc1 (stereo unspecified)
  0, i, i, 2, i
> O=c1ccnc(S/C=C/c2ccccc2)[nH]1
  -10, x, x, 3, x
> CCOC(=O)c1sc2ncn(CC(=O)NCC3CCCO3)c(=O)c2c1C (stereo unspecified)
  -2, x, x, 1, x
> CN1C(=O)CSc2ccc(NC(=O)N3CCC(N4CCCCC4)CC3)cc21
  -3, x, x, 9, x
> CCc1nc(SCC(=O)NCc2ccco2)c2c3c(sc2n1)CCCC3
  0, i, i, -19, i
> CCS(=O)(=O)CCn1c([N+](=O)[O-])cnc1C
  -8, i, i, 1, i
> O=C(Nc1ccc2oc(-c3ccncc3)nc2c1)c1cccs1
  -11, i, i, 4, i

(listing goes on)
Every second line gives: FPR binder, VCAM-1 inhibition, VCAM-1 down imaging, FPRL1 ligand, VCAM-1 augmentation
> CC1=C(C(=O)Nc2ccccc2)C(c2ccccn2)n2nc(CCCO)nc2N1 (stereo unspecified)
  1, i, i, -3, i
> O=C(CN1CCN(CC(=O)Nc2ccc3c(c2)OCO3)CC1)Nc1ccc(F)cc1
  -4, x, x, 2, x
> Cc1c(C(=O)O)sc2nc3n(c(=O)c12)CCC(C)CC3 (stereo unspecified)
  -2, i, i, 0, i
> O=C(CSc1nnc(CNC(=O)c2cccs2)o1)c1ccc(Cl)cc1
  -1, x, x, -2, x
> COc1ccccc1N1CCN(C(=O)c2nn(-c3ccccc3OC)c(=O)c3ccccc23)CC1
  0, x, x, 7, x
> CCCOc1ccc2oc(=O)c3c(c2c1)CCCN3C(=O)CN(C)Cc1ccccc1
  1, x, x, 1, x
> COc1ccccc1N(CC(=O)NCc1ccccn1)S(C)(=O)=O
  3, i, i, -2, i
> CCOC(=O)CNC(=O)Cn1cnc2sc(C)c(S(=O)(=O)N3CCC(C)CC3)c2c1=O
  5, x, x, 0, x
> CC(=O)Nc1ccc(NS(=O)(=O)c2cc(C)sc2C)cc1
  1, x, x, -1, x
> Cc1ccc(O)c(-c2cc3ccccc3[nH]2)c1
  2, i, i, -12, i

In a second layout: entries from further up
| compound | FPR binder | VCAM-1 inhibition | VCAM-1 down imaging | FPRL1 ligand | VCAM-1 augmentation |
| --- | --- | --- | --- | --- | --- |
| CCc1nc(SCC(=O)NCc2ccco2)c2c3c(sc2n1)CCCC3 | 0 | i | i | -19 | i |
| CCS(=O)(=O)CCn1c([N+](=O)[O-])cnc1C | -8 | i | i | 1 | i |
| O=C(Nc1ccc2oc(-c3ccncc3)nc2c1)c1cccs1 | -11 | i | i | 4 | i |
| CC1=C(C(=O)Nc2ccccc2)C(c2ccccn2)n2nc(CCCO)nc2N1 (stereo unspecified) | 1 | i | i | -3 | i |
| O=C(CN1CCN(CC(=O)Nc2ccc3c(c2)OCO3)CC1)Nc1ccc(F)cc1 | -4 | x | x | 2 | x |
| Cc1c(C(=O)O)sc2nc3n(c(=O)c12)CCC(C)CC3 (stereo unspecified) | -2 | i | i | 0 | i |
| O=C(CSc1nnc(CNC(=O)c2cccs2)o1)c1ccc(Cl)cc1 | -1 | x | x | -2 | x |
| COc1ccccc1N1CCN(C(=O)c2nn(-c3ccccc3OC)c(=O)c3ccccc23)CC1 | 0 | x | x | 7 | x |
| CCCOc1ccc2oc(=O)c3c(c2c1)CCCN3C(=O)CN(C)Cc1ccccc1 | 1 | x | x | 1 | x |
| COc1ccccc1N(CC(=O)NCc1ccccn1)S(C)(=O)=O | 3 | i | i | -2 | i |
| CCOC(=O)CNC(=O)Cn1cnc2sc(C)c(S(=O)(=O)N3CCC(C)CC3)c2c1=O | 5 | x | x | 0 | x |

More entries:
Every second line gives: FPR binder, VCAM-1 inhibition, VCAM-1 down imaging, FPRL1 ligand, VCAM-1 augmentation
> COc1ccc(Nc2cc(C)nc3ncnn23)c(OC)c1
  0, x, x, 2, x
> Cc1cc(C)cc(NC(=O)Cn2ncn3c(cc4ccccc43)c2=O)c1
  10, x, x, 8, x
> COc1ccc(NC(=O)CSc2nnc(-c3ccncc3)n2CC2CCCO2)c(OC)c1 (stereo unspecified)
  0, i, i, -1, i
> c1ccc2c3nnc4n(c-3nc2c1)CCCS4
  -6, i, i, -9, i
> O=C(NC1CCCc2ccccc21)C1CCN(S(=O)(=O)c2cnc[nH]2)CC1 (stereo unspecified)
  0, i, i, 4, i
> O=C(c1cc(-c2ccco2)on1)N1CCN(c2ccccc2)CC1
  -3, x, x, -2, x
> CCCCCCNS(=O)(=O)c1nc2nc(C)cc(C)n2n1
  0, x, x, -1, x
> Cc1nc2c3ccccc3n(CC#N)c(=O)n2n1
  0, x, x, 1, x
> CCc1nnc(NC(=O)CSc2nc3c(c(=O)n2-c2ccccc2OC)SCC3)s1
  10, x, x, 9, x
> Cc1nn(C(C)(C)C)c(OC(=O)c2ccc3c(c2)OCO3)c1S(=O)(=O)c1ccccc1
  1, x, x, -13, x
> Cc1nc(CCNC(=O)c2cccs2)cs1
  -6, x, x, 0, x
> Cc1cccc2sc(NC(=O)CCNS(=O)(=O)c3cccs3)nc12
  0, x, x, -9, x
> O=C(c1c(O)c2ccccc2oc1=O)C1CCC1
  2, x, x, 17, x
> CC1CCc2nn(CC(=O)N3CCN(C(=O)c4ccco4)CC3)cc2C1 (stereo unspecified)
  0, i, i, 1, i
> O=C1CC(=O)N(Cc2cccs2)C(=O)N1
  -1, i, i, 4, i
> Cc1ccc(CCN2CC(C(=O)NCCCN3CCN(C)CC3)CC2=O)cc1 (stereo unspecified)
  -8, x, x, 4, x
> CC(=O)c1cccc(NC(=O)COc2nsnc2N2CCOCC2)c1
  6, x, x, 3, x

These rows are one share of the data; rates above refer to the full screens.
